hNpr1 antagonist – antagonists of human natriuretic peptide receptor Npr1 | P16066 | HEK293 hNpr1 GloSensor cGMP, ANP-stimulated luminescence | Potency, µM (top dose mostly 46.3 µM), inactives show at the top dose activity change, negative = inhibition, actives largely listed as inhibitors | 76,000 compounds, 1.6% hits | AID 1347048; active = well fitted inhibition curve with a large enough effect; inconclusive = small, poorly fitted or top-dose-only effect; inactive = no such curve, though single readings can be large or run the other way;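 also: nearly all actives have a fitted effect of over 60% in size; nearly all hits also lower the signal before the agonist is added; a reference antagonist and vehicle were the controls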
Target sequence (P16066 whole entry, looked up): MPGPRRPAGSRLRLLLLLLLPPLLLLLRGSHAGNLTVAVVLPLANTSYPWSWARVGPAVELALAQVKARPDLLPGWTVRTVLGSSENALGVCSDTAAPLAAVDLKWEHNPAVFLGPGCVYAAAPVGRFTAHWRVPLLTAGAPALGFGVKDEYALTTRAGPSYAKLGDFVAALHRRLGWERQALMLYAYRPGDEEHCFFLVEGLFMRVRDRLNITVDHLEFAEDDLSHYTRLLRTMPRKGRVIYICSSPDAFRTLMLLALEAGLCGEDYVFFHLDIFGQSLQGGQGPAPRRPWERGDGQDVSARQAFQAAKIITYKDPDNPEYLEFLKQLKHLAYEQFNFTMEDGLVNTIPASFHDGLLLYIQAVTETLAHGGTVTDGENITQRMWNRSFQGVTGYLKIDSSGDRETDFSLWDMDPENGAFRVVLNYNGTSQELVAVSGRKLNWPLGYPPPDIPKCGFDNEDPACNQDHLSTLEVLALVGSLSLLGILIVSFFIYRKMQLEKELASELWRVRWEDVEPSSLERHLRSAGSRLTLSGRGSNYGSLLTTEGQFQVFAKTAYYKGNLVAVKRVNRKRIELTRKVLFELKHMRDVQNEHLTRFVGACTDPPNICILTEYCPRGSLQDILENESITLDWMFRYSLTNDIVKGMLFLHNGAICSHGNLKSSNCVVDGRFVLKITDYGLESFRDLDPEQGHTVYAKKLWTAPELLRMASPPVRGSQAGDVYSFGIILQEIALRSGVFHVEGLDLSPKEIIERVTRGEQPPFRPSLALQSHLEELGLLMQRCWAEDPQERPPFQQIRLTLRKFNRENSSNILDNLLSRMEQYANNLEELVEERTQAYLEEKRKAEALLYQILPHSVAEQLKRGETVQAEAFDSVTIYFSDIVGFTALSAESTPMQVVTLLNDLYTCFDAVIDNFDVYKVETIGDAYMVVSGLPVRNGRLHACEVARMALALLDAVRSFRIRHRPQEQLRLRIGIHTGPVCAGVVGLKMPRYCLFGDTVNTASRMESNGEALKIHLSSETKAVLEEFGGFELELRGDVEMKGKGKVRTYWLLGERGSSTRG
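HEK293 cells stably expressing human Npr1 and cGMP GloSensor pGS-40F, loaded 2 h with 2% GloSensor reagent, given compound 30 min at room temperature. Luminescence read before and 20 min after 0.1 nM hNppA.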
* marks the source's active call; other numbers are inactive results; ? = inconclusive; [ ] = another dose, or the depositor's remark. % is scaled to controls: 0 for no effect and ±100 for the full control effect; potency is read from the fitted curve at half-maximal effect.

SMILES	hNpr1 antagonist
COc1ccc(CC(=O)N2C[C@@H]3CC[C@H](C2)N(CC2CCC2)C3)c(OC)c1	-7.8%
CC(C)(C)c1cn(C[C@H]2CC3CCN2C[C@@H]3C(=O)NCc2ccc3c(c2)OCO3)nn1 (stereo not given in full)	4.8%[70.6 µM]
c1ccc(CN2CCOC[C@H]3CCNC[C@H]32)cc1	-0.4%
CC[C@H]1CN2CC[C@H]1C[C@@H]2CNC(=O)Nc1ccc(C(C)(C)C)cc1	-2.5%[70.6 µM]
COCCNC(=O)[C@H]1CN2CCC1C[C@@H]2Cn1cc(C2(O)CCCCC2)nn1 (stereo not given in full)	1.8%[70.6 µM]
COc1cc2c(cc1OCc1ccccc1)N(C(=O)c1cc3ccccc3n1C)CC21CCN(C)CC1	-1.8%
O=C1Nc2ccccc2CC12CCN2Cc1ccccn1 (stereo not given)	-1.4%[70.6 µM]
COc1ccc(C2=NOC3(CCN(Cc4cc(C)on4)C3)C2)cc1 (stereo not given)	2.2%[70.6 µM]
CCC1(N2CCN(C(=O)Cc3c[nH]c4ccccc34)CC2)CCN(S(C)(=O)=O)C1 (stereo not given)	-16.2%
O=C(NCc1ccccc1)[C@H]1CN2CCC1C[C@@H]2Cn1cc(CSc2ccccc2)nn1 (stereo not given in full)	-2.8%
O=C(c1ccco1)N1[C@H]2CC[C@@H]1c1cnc(-c3ccc(F)cc3)nc1C2	?
O=C1NCCCCCN(Cc2ccccn2)[C@H]2CCC[C@@H]12	3.7%
CCCn1cc(C(=O)NC(C(=O)O)c2ccccc2C(F)(F)F)c(C)n1 (stereo not given)	4.8%
CN(C)c1nc2c(c(N3C[C@H]4CNC[C@@]4(C(=O)O)C3)n1)CCCC2	17.5%
Cc1cccc(CC(=O)N2CCN(Cc3ccc(=O)n(C)c3)CC2)c1	-12.0%
COc1cccc(CC(=O)N2CC3(CCN(C(C)=O)CC3)c3cc(OC)c(CCc4ccccc4)cc32)c1	1.4%
COCC(=O)NC[C@H]1C[C@@H]2CCN1C[C@@H]2CN1CCC(C)CC1	4.9%[70.6 µM]
CN(C)CCNC(=O)C1CNCC12CCOCC2 (stereo not given)	-0.9%
Cn1nc(-c2ccc3ccccc3c2)cc1[C@H]1CN2CC[C@H]1C[C@@H]2COC(=O)Nc1ccccc1	-7.9%
C1CC(N(CC2CC2)C2CNC2)CCO1	12.5%
Cc1nc(-c2ccco2)cc([C@H]2CN3CC[C@H]2C[C@@H]3CNS(=O)(=O)c2cccs2)n1	3.4%
Cn1nc(-c2ccc(F)cc2)cc1[C@H]1CN2CC[C@H]1C[C@@H]2CNC(=O)N1CCOCC1	-8.8%[70.6 µM]
CCCn1c(C)cnc1CCNC(=O)c1nn(C)c2ccccc12	2.9%
O=C(NC1CC1)[C@H]1CN2CC[C@H]1C[C@@H]2Cn1cc(CO)nn1	0.1%[70.6 µM]
COc1cc2c(cc1CCc1ccccc1)N(C(=O)[C@@H]1CCCO1)CC21CCN(C(C)=O)CC1	2.1%
O=S(=O)(NC[C@H]1C[C@@H]2CCN1C[C@@H]2CN1CCN(c2ncccn2)CC1)c1ccc(Cl)cc1	2.1%
Cc1nc(-c2ccccc2Br)cc([C@H]2CN3CC[C@H]2C[C@@H]3CNC(=O)c2ccc(N(C)C)cc2)n1	-8.1%
Cn1nc(-c2cccs2)cc1[C@H]1CN2CC[C@H]1C[C@@H]2COC(=O)Nc1cccc(C(F)(F)F)c1	1.5%
COc1ccc([C@@H]2CN(C(=O)Nc3ccc(C)cc3)[C@@H]3C4CCN(CC4)[C@@H]32)cc1	2.1%
COc1ccc(CC(=O)N2CCCN(C)C3(CCN(C)CC3)C2)cc1OC	5.2%
COc1ccccc1-c1cc([C@H]2CN3CC[C@H]2C[C@@H]3CNC(=O)COc2ccccc2)n(C)n1	-2.2%
CCCSc1ncc(CN2CCC3(CCNCC3)C2)cn1	2.9%
CN1CCN(C)c2cc(Nc3ccncc3)ncc2C1	3.6%[70.6 µM]
Cc1nc(-c2ccccc2)cc([C@H]2CN3CC[C@H]2C[C@@H]3CNC(=O)C(C)(C)C)n1	-1.5%[70.6 µM]
O=C1CO[C@H]2CN(C3CCOCC3)C[C@H]2N1Cc1ccccn1	10.9%[70.6 µM]
COc1cc2c(cc1Oc1ccccc1)NC(=O)C21CCN(CCC(C)C)CC1	-14.9%[70.6 µM]
Cn1nc(C2CCCCC2)cc1[C@H]1CN2CC[C@H]1C[C@@H]2CO	0.5%[70.6 µM]
COc1ccccc1-c1cc([C@H]2CN3CC[C@H]2C[C@@H]3COC(=O)Nc2ccccc2)nc(C)n1	-1.2%
CS(=O)(=O)N(C1CC1)C1CCOC2(CCNCC2)C1 (stereo not given)	-3.6%
CCn1cc(C(=O)N2C[C@H](c3cccc(OC)c3)[C@@H]3[C@H]2C2CCN3CC2)cn1	-1.7%

Retrieved by structure from above, five records:
SMILES	hNpr1 antagonist
CCn1cc(C(=O)N2C[C@H](c3cccc(OC)c3)[C@@H]3[C@H]2C2CCN3CC2)cn1	-1.7%
COc1ccc([C@@H]2CN(C(=O)Nc3ccc(C)cc3)[C@@H]3C4CCN(CC4)[C@@H]32)cc1	2.1%
CCCSc1ncc(CN2CCC3(CCNCC3)C2)cn1	2.9%
COc1ccc(CC(=O)N2CCCN(C)C3(CCN(C)CC3)C2)cc1OC	5.2%
COc1ccccc1-c1cc([C@H]2CN3CC[C@H]2C[C@@H]3CNC(=O)COc2ccccc2)n(C)n1	-2.2%

The listing picks up, repeating the three entries before the break.
SMILES	hNpr1 antagonist
COc1ccccc1-c1cc([C@H]2CN3CC[C@H]2C[C@@H]3COC(=O)Nc2ccccc2)nc(C)n1	-1.2%
CS(=O)(=O)N(C1CC1)C1CCOC2(CCNCC2)C1 (stereo not given)	-3.6%
CCn1cc(C(=O)N2C[C@H](c3cccc(OC)c3)[C@@H]3[C@H]2C2CCN3CC2)cn1	-1.7%
Cc1cc(C(=O)N2[C@H]3CC[C@@H]2c2cnc(-c4ccc(F)cc4)nc2C3)n[nH]1	12.6µM*
N#CC1(c2ccccc2)CCN(C(=O)c2cccc(-n3cnnc3)c2)CC1	-3.2%
C=C[C@H]1CN2CC[C@H]1C[C@@H]2CNC(=O)COc1ccccc1	0.2%[70.6 µM]
O=C1NC2(CCN(Cc3cccnc3)C2)Oc2ccccc21 (stereo not given)	-21.8%[70.6 µM]
OCC1CN(c2ccncn2)CC12CCNCC2 (stereo not given)	7.5%
O=C(C1CCCCC1)N1C[C@@H]2C[C@H](C1)c1c(/C=C/c3ccc(Cl)cc3)ccc(=O)n1C2	-1.6%
COC[C@H]1CCCN1C[C@H]1CN2CC[C@H]1C[C@@H]2CNC(=O)Nc1ccc(OC)cc1	-1.9%[70.6 µM]
O=S(=O)(NC[C@H]1C[C@@H]2CCN1C[C@@H]2CN1CCC(Cc2ccccc2)CC1)c1ccc(Cl)cc1	-3.5%
CC[C@H]1CN2CC[C@H]1C[C@@H]2CNC(=O)CCC(=O)O	1.1%[70.6 µM]
COc1ccc(CC(=O)N2CC3(CCN(C)CC3)c3cc(OC)c(OCc4ccccc4)cc32)cc1	6.5%
OCC1CN(C2CCC2)CC12CCNCC2 (stereo not given)	2.3%
N[C@H]1[C@H](O)[C@@H](N2CCCCC2)[C@@H]2OC[C@H]1O2	-0.8%[70.6 µM]
COc1cncc(NC(=O)C2=NO[C@@H]3CN(CC4CC4)C[C@H]23)c1	2.6%[70.6 µM]
CCCS(=O)(=O)NC[C@H]1C[C@@H]2CCN1C[C@@H]2CC	-4.8%[70.6 µM]
CN1CCN(C[C@H]2CN3CC[C@H]2C[C@@H]3CNS(=O)(=O)c2ccccc2)CC1	2.8%[70.6 µM]
CC(C)CC(=O)N1[C@H]2CC[C@@H]1c1cnc(-c3ccc(F)cc3)nc1C2	12.6µM*
O=C(NC1CCCCC1)OC[C@H]1C[C@@H]2CCN1C[C@@H]2c1cc(C2CCCC2)nc(-c2ccncc2)n1	?
C=C[C@H]1CN2CC[C@H]1C[C@@H]2CNC(=O)c1ccc2c(c1)OCO2	-11.7%[70.6 µM]
O=C(NCc1ccccc1)[C@H]1CN2CCC1C[C@@H]2Cn1cc(-c2ccc(F)cc2)nn1 (stereo not given in full)	-8.5%[70.6 µM]
CN(C)c1ccc(C(=O)NC[C@H]2C[C@@H]3CCN2C[C@@H]3CN2CCc3ccccc3C2)cc1	-26.2%[70.6 µM]

Brought forward from above: 2 compounds, then new ones.
SMILES	hNpr1 antagonist
O=C(NCc1ccccc1)[C@H]1CN2CCC1C[C@@H]2Cn1cc(-c2ccc(F)cc2)nn1 (stereo not given in full)	-8.5%[70.6 µM]
CN(C)c1ccc(C(=O)NC[C@H]2C[C@@H]3CCN2C[C@@H]3CN2CCc3ccccc3C2)cc1	-26.2%[70.6 µM]
Cc1nc(-c2ccco2)cc([C@H]2CN3CC[C@H]2C[C@@H]3CNC(=O)Cc2cccs2)n1	-7.2%[70.6 µM]
CN1C[C@H]2CN(Cc3cnn(C)c3)CCN2C1=O	1.9%[70.6 µM]
CC(C)NC(=O)NC[C@H]1C[C@@H]2CCN1C[C@@H]2CN(C)Cc1ccccc1	3.3%[70.6 µM]
O=C(c1cnccn1)N1C[C@@H]2C[C@H](C1)c1ccc(-c3cccc(C(F)(F)F)c3)c(=O)n1C2	6.1%
CCCc1cnc(C)nc1N1CCC2(CC1)CNC(C(=O)O)C2 (stereo not given)	4.5%
CCCc1cc(C(=O)N2C[C@@H](c3ccc(F)cc3)[C@@H]3[C@H]2C2CCN3CC2)n[nH]1	7.5%
Cc1ccc2c(n1)N(C)[C@H](CO)CCN(C1CCCC1)C2	0.4%[70.6 µM]
COc1ncccc1-c1cnc2[nH]cc(CC(=O)N3CCN(C)CC3)c2c1	3.4%[70.6 µM]
O=c1ccc(-c2cccs2)c2n1C[C@H]1C[C@@H]2CN(S(=O)(=O)c2ccccc2)C1	3.0%[70.6 µM]
COc1cc2c(cc1Oc1ccccc1)NC(=O)C21CCN(c2nccs2)CC1	-26.2%[70.6 µM]
CN1C(=O)[C@H]2CN(Cc3cccnc3)C[C@H]2C1=O	1.6%
COc1ccc(-c2cc([C@H]3CN4CC[C@H]3C[C@@H]4CNC(=O)c3ccc4c(c3)OCO4)n(C)n2)cc1	6.8%
COC[C@H]1C[C@@H](NC2CCN(C)CC2)[C@H](O)[C@@H]1O	-1.0%[70.6 µM]
COc1cc2c(cc1Oc1cccc(N(C)C)c1)NC(=O)C21CCN(Cc2cccc(O)c2)CC1	11.2µM*
O=C(NC1CCCCC1)[C@H]1CN2CCC1C[C@@H]2Cn1cc(COc2ccccc2)nn1 (stereo not given in full)	0.0%[70.6 µM]
CN(CCc1ccccn1)C[C@H]1CN2CC[C@H]1C[C@@H]2CNC(=O)c1ccco1	3.8%[70.6 µM]
O=C1NC2(CCN(Cc3cccnc3)C2)COc2ccccc21 (stereo not given)	5.6%[70.6 µM]
Cc1cccc(OCC(=O)N2C[C@@H](CO)[C@H](N(C)C)C2)c1	1.6%
CCc1nnc2ccc(N3CCN(C)CC3)nn12	-0.4%
Cc1ncc2c(n1)C[C@@H]1CC[C@H]2N1C(=O)c1cccs1	-3.2%
Cn1nc(-c2ccc3ccccc3c2)cc1[C@H]1CN2CC[C@H]1C[C@@H]2CNS(=O)(=O)c1ccccc1	-24.3%
C=C[C@H]1CN2CC[C@H]1C[C@@H]2CNC(=O)Nc1cc(OC)cc(OC)c1	-0.2%[70.6 µM]
Cc1nc(-c2ccccc2Br)cc([C@H]2CN3CC[C@H]2C[C@@H]3CNC(=O)c2cccs2)n1	-7.3%
Cc1nc(-c2ccco2)cc([C@H]2CN3CC[C@H]2C[C@@H]3CNC(=O)NC2CCCCC2)n1	0.5%[70.6 µM]
COc1ccc2c(c1)C1(CCN(C(=O)Nc3ccccc3OC)C1)C(=O)N2 (stereo not given)	4.6%
O=[S+]1([O-])NC2(CCN(Cc3cccnc3)C2)CNc2ccccc21 (stereo not given)	-13.7%[70.6 µM]
COc1ccc(NC(=O)N2[C@H]3CC[C@@H]2c2cncnc2C3)c(OC)c1	-0.8%
CCN1CCCNCC12CCOCC2	1.5%
COCCN1C[C@H]2CN(Cc3cccnc3)CCN2C1=O	-2.8%[70.6 µM]
CCC(CC)c1cc([C@H]2CN3CC[C@H]2C[C@@H]3CNC(=O)c2ccc(C)cc2)nc(-c2ccncc2)n1	-12.5%
COCCCn1c(C)cc(C(=O)NC2CCc3nnc(C4CC4)n3CC2)c1C (stereo not given)	-1.3%
COCCN1CCC(N2CCN(C(=O)Cc3ccc(Cl)cc3)CC2)C1=O (stereo not given)	3.3%
CC(C)(O)c1cn(C[C@H]2C[C@@H]3CCN2C[C@@H]3C(=O)NCc2ccc(F)cc2)nn1	4.4%[70.6 µM]
C=C[C@H]1CN2CC[C@H]1C[C@@H]2CNS(=O)(=O)c1ccc(OC)cc1	5.2%[70.6 µM]
CC(C)c1nnc2ccc(N3CCN(C)CC3)nn12	2.8%
CNc1ccnc(N2C[C@H]3CN(CCOC)C[C@@]3(C(=O)O)C2)n1	16.6%
COc1cc2c(cc1Oc1ccccc1)NC(=O)C21CCN(c2ncc(F)cn2)CC1	-17.4%[70.6 µM]
CS(=O)(=O)NC[C@H]1C[C@@H]2CCN1C[C@@H]2CN1CCc2ccccc2C1	7.9%[70.6 µM]
COC1C(=O)N(c2cccc(F)c2)C12CCNCC2 (stereo not given)	0.1%
COc1ccc(-c2cc([C@H]3CN4CC[C@H]3C[C@@H]4CNC(=O)C3CCCCC3)n(C)n2)cc1OC	-1.3%

Taken from above:
hNpr1 antagonist with COCCN1CCC(N2CCN(C(=O)Cc3ccc(Cl)cc3)CC2)C1=O (stereo not given) = 3.3%
hNpr1 antagonist with CC(C)(O)c1cn(C[C@H]2C[C@@H]3CCN2C[C@@H]3C(=O)NCc2ccc(F)cc2)nn1 = 4.4%[70.6 µM]
hNpr1 antagonist with Cn1nc(-c2ccc3ccccc3c2)cc1[C@H]1CN2CC[C@H]1C[C@@H]2CNS(=O)(=O)c1ccccc1 = -24.3%

Only part of the results is shown; rates above refer to the full screens.
